From PubChem
VACV Venus inh = inhibitors of vaccinia virus (Venus reporter); Vaccinia virus Venus reporter expression, fluorescence; Potency, µM (highest dose often 36.5 µM), inactives show at the highest dose activity change, negative = inhibition, actives largely listed as inhibitors; 330,000 tested, 0.46% active; AID 720580; active means well fitted inhibition curve with a large enough effect; inconclusive means small, poorly fitted or top-dose-only effect; inactive means no such curve, though single readings can be large or run the other way; tested in A549 cells; further: nearly all actives have a fitted effect of over 30% in size; inactives centre near -10
Vaccinia mCherry = vaccinia inhibition (mCherry reporter); Vaccinia virus mCherry reporter infection, fluorescence; about a quarter of the inactives have no number; Potency, µM (doses to about 36.5 µM), for the others: at the top dose activity change, negative = inhibition, actives largely listed as inhibitors; AID 720579; 310,000 tested, 0.63% active; active = well fitted inhibition curve with a large enough effect; inconclusive = small, poorly fitted or top-dose-only effect; inactive = no such curve, though single readings can be large or run the other way; tested in A549 cells; further: nearly all actives have a fitted effect of over 35% in size; inactives centre near -10
An asterisk follows results filed as active; & = joins results of further samples; [ ] = dose if it differs, or a comment. On the % scale 0 is the no-effect control and ±100 the full control effect; potency means the concentration at half of the fitted maximal effect.

For CCOC(=O)[C@@H]1[C@H]2COc3ccc(Br)cc3[C@@H]2N2C(=O)N(c3ccc(C(F)(F)F)cc3)C(=O)[C@@]12C the results were VACV Venus inh -17% and Vaccinia mCherry -9%.
Screening CCN(CC)c1ccc2c(cc1=O)[C@@H](NC)CCc1cc(OC)c(OC)c(OC)c1-2 returned VACV Venus inh -17% and Vaccinia mCherry inconclusive.
Screening C=C1CN(CC(=O)OC)S(=O)(=O)c2ccccc21 returned VACV Venus inh -10% and Vaccinia mCherry -10%.
CN(C)CCN1CCN(C2CN(Cc3cn(Cc4ccc(C(F)(F)F)cc4)nn3)S(=O)(=O)C2)CC1 (configuration not stated) was read as VACV Venus inh -6% and Vaccinia mCherry -1%.
For CCOC(=O)c1nc2sc3c(c2c(=O)[nH]1)CCC(C)C3 (configuration not stated) the results were VACV Venus inh -1% and Vaccinia mCherry -2%.
COCCn1c(-c2ccccc2)nc2ccccc21 was read as VACV Venus inh 6% and Vaccinia mCherry 3%.
For O=C(O)c1cc2n(n1)C(C(F)(F)F)CC(c1ccccc1)N2 (configuration not stated) the results were VACV Venus inh -10%.
Screening CC1CCN(Cc2c(O)ccc3c(=O)c(-c4ccc(Cl)cc4)c(C(F)(F)F)oc23)CC1 returned VACV Venus inh -9% and Vaccinia mCherry -7%.
For CCOc1ccc(CN(CCc2ccc3c(c2)OCO3)Cc2cc(OC)cc(OC)c2)cc1 the results were VACV Venus inh -11%[7.34 µM] and Vaccinia mCherry -13%[7.34 µM].
Cc1cc(C)c(C(=O)COC(=O)c2ccc(NC(=O)CC#N)cc2)cc1C was read as VACV Venus inh -3% and Vaccinia mCherry -28%.

Next section; the last 3 above are carried over.
Screening CC1CCN(Cc2c(O)ccc3c(=O)c(-c4ccc(Cl)cc4)c(C(F)(F)F)oc23)CC1 returned VACV Venus inh -9% and Vaccinia mCherry -7%.
For CCOc1ccc(CN(CCc2ccc3c(c2)OCO3)Cc2cc(OC)cc(OC)c2)cc1 the results were VACV Venus inh -11%[7.34 µM] and Vaccinia mCherry -13%[7.34 µM].
Cc1cc(C)c(C(=O)COC(=O)c2ccc(NC(=O)CC#N)cc2)cc1C was read as VACV Venus inh -3% and Vaccinia mCherry -28%.
`Cc1ccccc1-n1c(SCC(=O)c2c(N)n(C)c(=O)n(C)c2=O)nnc1-c1cccnc1` gave VACV Venus inh -11% and Vaccinia mCherry inactive.
`Cc1c(CNC(=O)c2nn3c(c2Cl)NC(c2ccccc2)CC3C(F)(F)F)cnn1C` (configuration not stated) gave VACV Venus inh -23% and Vaccinia mCherry -25%.
For CCCS(=O)(=O)NC(=O)C1(C)CCN(C(=O)c2cc(C)nn2C(C)(C)C)C1 (configuration not stated) the results were VACV Venus inh 5% and Vaccinia mCherry -5%.
Screening O=C1S/C(=C\c2ccc(N3CCOCC3)o2)C(=O)N1Cc1ccc(F)cc1 returned VACV Venus inh 14% and Vaccinia mCherry inactive.
COc1ccc(Cl)cc1S(=O)(=O)Nc1noc2ccccc12 was read as VACV Venus inh -17% and Vaccinia mCherry -10%.
Screening O=C(O)COc1c(-c2ccc(Cl)cc2)oc2ccccc2c1=O returned VACV Venus inh 1% and Vaccinia mCherry -7%.
`c1ccc(CN2CCOCCOCCOCC2)cc1` gave VACV Venus inh -7%[7.34 µM] and Vaccinia mCherry -4%[7.34 µM].
For CN1C(=O)[C@H]2[C@@H](/C=C/c3ccccc3)N3C(=O)CN(Cc4ccccn4)C(=O)[C@@]3(C)[C@H]2C1=O the results were VACV Venus inh -2% and Vaccinia mCherry inactive.
COc1cccc(C(=O)Nc2cc(C(=O)NCc3ccc(C)cc3)ccc2N2CCC3(CC2)CC(c2ccccc2)=NO3)c1 was read as VACV Venus inh -6% and Vaccinia mCherry -10%.
For COc1cccc(OC)c1C(=O)Nc1cc(Cl)ccc1N1CCOCC1 the results were VACV Venus inh -15% and Vaccinia mCherry -9%[1.46 µM].
COc1cccc(/C=N/NC(=O)c2[nH]c(C)c(C(=O)N/N=C/c3cccc(OC)c3O)c2C)c1O was read as VACV Venus inh -14% and Vaccinia mCherry -26%.
COC(=O)[C@]1(CC(C)C)N[C@H](c2ccc(-c3ccc(F)cc3)c(OC)c2)[C@@H]2C(=O)N(C)C(=O)[C@@H]21 was read as VACV Venus inh -26% and Vaccinia mCherry -2%.
COC(=O)c1ccc(NC(=O)Cc2coc3cc(C)ccc23)cc1 was read as VACV Venus inh 2% and Vaccinia mCherry -14%.
O=C(CCc1ccc(O)c(O)c1)N/N=C/c1ccc2c(c1)OCO2 was read as VACV Venus inh 4% and Vaccinia mCherry inconclusive.
`COC(=O)C1=C(c2ccc(F)cc2OCc2ccccc2)C[C@@H]2CC[C@H]1N2C(=O)NCc1ccc(N(C)C)cc1` gave VACV Venus inh inconclusive and Vaccinia mCherry -8%.
For C#CCn1c(=NC(=O)c2ccc(Br)s2)sc2cc(NC(C)=O)ccc21 the results were VACV Venus inh -6% and Vaccinia mCherry inactive.
COc1ccc(CNC(=O)C2CCCN(S(=O)(=O)c3ccc(-n4cnnn4)cc3)C2)cc1 (configuration not stated) was read as VACV Venus inh -1% and Vaccinia mCherry 14%.
NC(=O)c1ccccc1NC(=O)CCCN1C(=O)CCC1=O was read as VACV Venus inh -2%.
Screening CC(=O)N1c2ccc(S(=O)(=O)N3CCCCC3)cc2CC1C(=O)NCc1cccc(Cl)c1 (configuration not stated) returned VACV Venus inh -24% and Vaccinia mCherry inactive.
Screening CCOc1ccc(NC(=O)CSc2nnc(-c3ccccc3)n2N)cc1 returned VACV Venus inh -21% and Vaccinia mCherry -8%.
Cc1ccc2c(=O)c(C(=O)c3ccccc3)cn(CC(=O)Nc3ccc(C)c(Cl)c3)c2n1 was read as VACV Venus inh -17% and Vaccinia mCherry -12%.
`COc1ccc(-c2ccc(OC)c([C@H]3[C@H]4C=CC[C@@H](C)[C@@H]4C(=O)N3Cc3ccccc3)c2)cc1` gave VACV Venus inh -8% and Vaccinia mCherry -11%.
`Cc1cc(Nc2ccccc2)n(-c2ccccc2)n1` gave VACV Venus inh -1%.
`CCCOC(=O)c1ccc(NC(=O)c2cc(Cl)ccc2OC)cc1` gave VACV Venus inh -4% and Vaccinia mCherry -15%.
`COc1ccccc1CN1CC(C(=O)NCCn2nc(C)cc2C)CCC1=O` (configuration not stated) gave VACV Venus inh -21% and Vaccinia mCherry -4%.
For N#CC(=C(O)CN1CCN(c2ccccc2F)CC1)c1nc(-c2ccccc2)cs1 the results were VACV Venus inh -23% and Vaccinia mCherry -12%.
`CCNC(=O)N1CCNC(=O)C1CC(=O)OC` (configuration not stated) gave VACV Venus inh -14% and Vaccinia mCherry inactive.
O=c1[nH]cnc2c1[nH]c(=S)n2C1O[C@@H](CO)[C@H](O)[C@@H]1O (some centres not stated) was read as VACV Venus inh -6% and Vaccinia mCherry 34%[activator].
Screening O=C(O)C1(c2ccccc2)CCC(Nc2ccccc2)C1 (configuration not stated) returned VACV Venus inh -6% and Vaccinia mCherry -21%.
Nc1cccc(S(=O)(=O)Nc2ccccc2)c1 was read as VACV Venus inh -8% and Vaccinia mCherry inactive.
For COc1cc(NC(=O)c2cn(C3CCCC3)c(=O)c3c2c2ccccc2n3C)cc(OC)c1OC the results were VACV Venus inh -13% and Vaccinia mCherry -14%.
Screening CCN(CC)c1ncnc2c1cnn2Cc1ccc(Cl)cc1 returned VACV Venus inh -16% and Vaccinia mCherry -18%.
Screening Cc1ccc(C)c(NC(=S)/C(=C(\[O-])c2ccc(OC(F)F)cc2)[n+]2ccccc2)c1 returned VACV Venus inh -5% and Vaccinia mCherry inactive.
Cc1ccc(C)c(OCc2nc(-c3cccnc3)no2)c1 was read as VACV Venus inh 0% and Vaccinia mCherry 2%.
Screening O=C(CNS(=O)(=O)c1ccccc1)NNC(=O)C(Cl)Cl returned VACV Venus inh 1% and Vaccinia mCherry inactive.
For C[n+]1ccc(/C=C/c2cc[n+](C)c3ccccc23)c2ccccc21 the results were VACV Venus inh 10µM* and Vaccinia mCherry inconclusive.
For Cn1c(SCc2ccc(F)cc2)nc2ccc(C(=O)NCc3ccc(Cl)cc3)cc21 the results were VACV Venus inh -27% and Vaccinia mCherry -28%.
O=C(COC(=O)C1CCC1)c1c[nH]c2ccccc12 was read as VACV Venus inh 2% and Vaccinia mCherry inconclusive.
For O=c1cc(N2CCOCC2)[nH]c(=O)n1-c1ccc(Cl)cc1 the results were VACV Venus inh -7% and Vaccinia mCherry 3%.
Screening O=C(Nc1ccc(F)cc1)c1ccc2snnc2c1 returned VACV Venus inh -13% and Vaccinia mCherry -7%.
CC(=O)Nc1ccc(NC(=O)CS(=O)(=O)c2cn(CC(=O)N3CCCCC3)c3ccccc23)cc1 was read as VACV Venus inh -15% and Vaccinia mCherry inactive.
Screening COc1ccc(C(C)(C)C)cc1NC(=O)c1[nH]c(C)c(C(C)=O)c1C returned VACV Venus inh -15% and Vaccinia mCherry inactive.
Screening O=C(NCCS(=O)(=O)N1CCN(c2ccccc2)CC1)C1CC(=O)N(c2ccc(F)cc2)C1 (configuration not stated) returned VACV Venus inh 3%&3% and Vaccinia mCherry -11%&14%.
Screening COc1ccc(NC(=O)N2CCOCC2)cc1OC returned VACV Venus inh 1% and Vaccinia mCherry -4%.
CCn1c2ccccc2c2cnc(N=CN(C)C)c(C#N)c21 was read as VACV Venus inh -45%.
`C=Cc1ccc2c(c1)OCCOCCOCCOCCOCCO2` gave VACV Venus inh -1% and Vaccinia mCherry -11%.
Screening NC(=O)c1ccc(NC(=O)C2CC(=O)N(c3ccc4c(c3)OCCO4)C2)cc1 (configuration not stated) returned VACV Venus inh -9% and Vaccinia mCherry -17%.
Screening CC1=C(C(=O)OC(C)C)C(c2ccccc2Cl)CC(=O)N1 (configuration not stated) returned VACV Venus inh -29% and Vaccinia mCherry inconclusive.
For NC(=O)Cc1ccc(OCc2nn[nH]n2)cc1 the results were VACV Venus inh -12% and Vaccinia mCherry -15%.
CCCCN1CC(COCc2ccccc2)Oc2cccc(Oc3ccccc3)c2S1(=O)=O (configuration not stated) was read as VACV Venus inh -24% and Vaccinia mCherry -5%.

2 successive compounds already listed:
Screening NC(=O)c1ccc(NC(=O)C2CC(=O)N(c3ccc4c(c3)OCCO4)C2)cc1 (configuration not stated) returned VACV Venus inh -9% and Vaccinia mCherry -17%.
Screening CC1=C(C(=O)OC(C)C)C(c2ccccc2Cl)CC(=O)N1 (configuration not stated) returned VACV Venus inh -29% and Vaccinia mCherry inconclusive.

Additional compounds.
For COc1cc(/C=C/C(=O)OCC(=O)Nc2sc3c(c2C#N)CCC(C)C3)ccc1OCC#N (configuration not stated) the results were VACV Venus inh 4% and Vaccinia mCherry 3%.
`O=C(NCCC1=CCCCC1)C1CCN(S(=O)(=O)c2ccccc2C(F)(F)F)CC1` gave VACV Venus inh -20% and Vaccinia mCherry -1%.
`Cc1cc(NC(=O)C2CCN(S(=O)(=O)c3cnc[nH]3)CC2)ccc1Br` gave VACV Venus inh -22% and Vaccinia mCherry -28%.
Screening Cc1nc(SCC(=O)NCCN2C(=O)CSC2=O)nc(C)c1C returned VACV Venus inh -14% and Vaccinia mCherry -2%.
For COc1ccc(C(=O)c2ccccc2)c(OCC(=O)N(C)C)c1 the results were VACV Venus inh -3% and Vaccinia mCherry inactive.
For COC(=O)c1c(NC(=O)Cc2ccccc2)sc(C)c1C the results were VACV Venus inh -9%.
`O=C(c1cccc([N+](=O)[O-])c1)N1CCN(C(=O)c2ccco2)CC1` gave VACV Venus inh 5% and Vaccinia mCherry -4%.
`Cc1ccc(C)c(S(=O)(=O)n2nc(C)c(S(=O)(=O)N3CCC(C)CC3)c2C)c1` gave VACV Venus inh 4% and Vaccinia mCherry 8%.
For Cc1cc(Cl)ccc1OCCCC(=O)NCCN1C(=O)S/C(=C\c2cccnc2)C1=O the results were VACV Venus inh -15% and Vaccinia mCherry -27%.
For CCOC(=O)[C@]12CCC=C1N(Cc1cccc3ccccc13)C(=O)[C@H](CC(=O)NCc1ccc(OC)c(OC)c1)C2 the results were VACV Venus inh inconclusive and Vaccinia mCherry -11%.
Screening NC(=O)C1CCN(C(=O)C(=O)c2cn(CC(=O)N3CCCCCC3)c3ccccc23)CC1 returned VACV Venus inh -1% and Vaccinia mCherry -21%.
`Cc1ccccc1OCCC(=O)OCC(=O)NC(=O)c1ccccc1` gave VACV Venus inh -8% and Vaccinia mCherry -9%.
Cc1ccc(CSCCC(=O)N2CCN(c3cc(C)ccc3C)CC2)cc1 was read as VACV Venus inh -11% and Vaccinia mCherry -14%.
Cc1cc(C)c(C(=O)COc2cccnc2[N+](=O)[O-])cc1C was read as VACV Venus inh 2%.
`CNc1cccc(-c2c(OC)cccc2OC)n1` gave VACV Venus inh -4% and Vaccinia mCherry -9%.
CC1=C(C(=O)N(C(C)C)C(C)C)CC(CC(=O)NC2CCCCC2)C(=O)N1Cc1ccccc1 (configuration not stated) was read as VACV Venus inh -26% and Vaccinia mCherry 10%.
For Cc1ccccc1CNC(=O)c1ccc(CN2CC(=O)N3CCCCC3C2=O)cc1 (configuration not stated) the results were VACV Venus inh -13% and Vaccinia mCherry -13%.
For COc1ccc(C2/C(=C(/O)c3ccc4c(c3)CC(C)O4)C(=O)C(=O)N2CCCN2CCOCC2)cc1 (configuration not stated) the results were VACV Venus inh -14% and Vaccinia mCherry inactive.
For O=C(CS(=O)(=O)Cc1ccccc1)Nc1nc2c(s1)CCCC2 the results were VACV Venus inh -17% and Vaccinia mCherry inactive.
CN1C2c3ccccc3C3C4c5ccccc5C(C31)C(C2[N+](=O)[O-])N4C (configuration not stated) was read as VACV Venus inh -6% and Vaccinia mCherry -5%.

No enrichment for hits; about 0.87% have a hit in one of these screens.
